Mtb hypoxia inh: PubChem AID 1159583; 0.1% of 300,000 active; fluorescence inhibition, % (concentration not given with the values); M. tuberculosis hypoxia-regulated fluorescent reporter, fluorescence;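 active = 35 to 45% if threefold the growth effect, above 45% if 1.5-fold the growth effect; inactive = the rest, general growth blockers included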;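 also: wells of about 50 µL received 100 nL stock; 0% = vehicle wells and 100% = reference inhibitor wells; whole bacteria with a GFP reporter of the hypoxia response; strong numbers were not always called active; many hits fall short of the cut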
Sa RN4220 lethal: growth inhibition of S. aureus RN4220, primary screen, OD600; inhibition, % (test concentration not listed); AID 1259311, 2017; 0.33% of 330,000 active; 16 h;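 active = z-score of -3 or lower and OD600 up to 0.18 on both plates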;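 also: plate controls were untreated cells for no effect and reference antibiotic for full effect; stock transfer was 100 nL into about 80 µL; one replicate is shown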
Sa ugtP lethal: growth inhibition of ugtP-null S. aureus, primary screen, RN4220 ugtP deletion, OD600. 16 h; some inactives read as strong as hits. growth inhibition, % (test concentration not listed). 0.54% of 330,000 active;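 active = z-score under -3 and OD600 up to 0.15 on both plates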;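 also: plate controls were untreated wells for no effect and antibiotic for full effect; wells of about 80 µL received 100 nL stock; the first replicate is given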
Bead autofluor: flagged as autofluorescent in microsphere protease counterscreen | compound autofluorescence counterscreen, microsphere flow cytometry; stronger effect = higher value | fluorescence intensity (concentration not given with the values) | 3.1% of 360,000 active | AID 624483;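 active = at least 3 SD above the mean of all compounds, about 16000 in these data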;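 also: 100 nL of 1 mM stock went into each well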
BJeLR viability: MLPCN primary cell-based screen for lethality selective to Ras in HRASV12 cells; BJeLR (HRASV12) viability, CellTiter-Glo ATP luminescence, 48 h; reference of the scale not given here; inhibition, % (concentration not given with the values); 0.17% of 300,000 active;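 active = replicate mean above 50%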;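 also: 50 nL library stock added to about 25 µL; numbers are from one replicate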
PrP 5UTR inh: inhibition of PrP 5' UTR reporter expression. inhibition, % (test concentration not listed). 0.35% of 340,000 active. cell-based PrP 5' UTR mRNA reporter, plate reader;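 active = every replicate at 50% or more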;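 also: 0 = median of the neutral control wells; tested in H4 reporter cells; numbers are from one replicate; inactives centre near -14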
Mtb hypoxia inh growth: second read-out of Mtb hypoxia inh, no call of its own (marks repeat the call); growth inhibition, %; measured here: M. tuberculosis growth (absorbance);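 0% = vehicle and 100% = reference antibiotic; read after six days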
* = called active by the depositor; x = not tested or not shown; & = joins results of further samples. Rows are unselected; overall some 4% were active at least once.

cpd	Molecule	Mtb hypoxia inh	Mtb hypoxia inh growth	Sa RN4220 lethal	Sa ugtP lethal	Bead autofluor	BJeLR viability	PrP 5UTR inh
1	O=S(=O)(c1ccc(F)c(F)c1)N1CCN(c2ccccn2)CC1	16	8	1.6	10	3018	11	-8
2	NC(=NCCc1ccccc1)NS(=O)(=O)c1ccc2ccccc2c1	2	-1	7.3	-10	2447	4	-21
3	Cc1ccc(NC(=O)CSc2nncn2N)cc1C	8	9	4.3	6	3828	2	-7
4	O=C(N/N=C/c1ccncc1)c1ccccc1	x	x	x	x	2576	9	-19
5	Cc1ccccc1NC(=S)N(CCN1CCOCC1)Cc1ccccc1F	-2	11	4.4	4	4711	2	-53
6	COCC(C)n1c(SCC(=O)N2CCc3ccccc3C2)nc2ccccc2c1=O (stereo unspecified)	16	9	2.7	2	2044	-10	-6
7	Cc1sc2nc(-c3ccccc3)[nH]c(=O)c2c1-c1ccccc1	5	0	0.6	3	x	4	x
8	CCC(=O)c1ccc(N2CCN(C(=O)c3ccccc3F)CC2)c(F)c1	4	13	6.2	-5	4831	-2	-28
9	CC1(C)SC2C(NC(=O)COc3ccccc3)C(=O)N2C1C(=O)O (stereo unspecified)	10	2	100*	101*	6015&4006	0	-12&-12
10	CC1CN(C(=O)/C=C/c2cccc([N+](=O)[O-])c2)CC(C)O1 (stereo unspecified)	x	x	1.0	5	2901	-2	-23
11	CC(=O)c1cc(CN2CCC(N3CCC(C(=O)NC(C)C)CC3)CC2)cs1	3	0	0.1	2	2955	-1	4
12	COc1cc2c(cc1OC)[C@@H](NC(=O)Cc1ccc(F)cc1)[C@H](OCc1ccccc1)C2	-2	6	-0.3	2	3277	x	-8
13	O=C(/C=C/c1cccs1)Nc1cccc(NC(=O)/C=C/c2cccs2)n1	4	0	21	-12	2121	-14	-70
14	Cc1cc(C(=O)CN2C(=O)NC(C)(CC(C)C)C2=O)c(C)n1-c1ccc2c(c1)OCO2 (stereo unspecified)	-5	5	-1.0	5	2719	-6	-19
15	Cc1cc(C)n(-c2ccc(Cl)c(C(=O)NCc3ccccc3)n2)n1	6	12	11	-7	5196	12	0
16	CCCc1nnc(NC(=O)CCC(=O)N2CCN(Cc3ccc(C)cc3C)CC2)s1	7	10	2.3	1	5633	1	-9
17	COc1cc(/C=N/n2nnnc2N)ccc1OCC(N)=O	x	x	x	x	4092	-11	-24
18	O=C(NCc1ccco1)C1CCN(S(=O)(=O)N2CCC3(CC2)OCCO3)CC1	13	3	1.7	4	5970	3	-12
19	Cc1cc(C(N)=O)c2cc(Br)ccc2n1	15	11	8.4	7	20846*	2	-30
20	Cc1c(NC(=S)NNC(=O)CCC(=O)O)c(=O)n(-c2ccccc2)n1C	7	-1	1.6	1	5003	-3	-11
21	CSc1nncc(C(C)=NNc2ccccc2)n1	15	9	0.8	-3	x	x	x
22	Cc1cc(C)nc(NS(=O)(=O)c2ccc(NS(=O)(=O)c3ccccc3)cc2)n1	16	4	5.2	-2	7972	9	-20
23	COc1ccc(Nc2nnc(SCC3CCCCO3)s2)cc1 (stereo unspecified)	1	9	1.8	-3	4702	-14	10
24	C#CCCOC(=O)N1C2=NC(C(=O)OC)=C(C(=O)OC)C3N(C)c4ccccc4[C@]23CC1CO (stereo partly specified)	2	5	4.9	-2	x	x	x

15 structures already listed, ordered by formula weight, ascending.
cpd	Molecule	Mtb hypoxia inh	Mtb hypoxia inh growth	Sa RN4220 lethal	Sa ugtP lethal	Bead autofluor	BJeLR viability	PrP 5UTR inh
21	CSc1nncc(C(C)=NNc2ccccc2)n1	15	9	0.8	-3	x	x	x
19	Cc1cc(C(N)=O)c2cc(Br)ccc2n1	15	11	8.4	7	20846*	2	-30
10	CC1CN(C(=O)/C=C/c2cccc([N+](=O)[O-])c2)CC(C)O1 (stereo unspecified)	x	x	1.0	5	2901	-2	-23
17	COc1cc(/C=N/n2nnnc2N)ccc1OCC(N)=O	x	x	x	x	4092	-11	-24
7	Cc1sc2nc(-c3ccccc3)[nH]c(=O)c2c1-c1ccccc1	5	0	0.6	3	x	4	x
23	COc1ccc(Nc2nnc(SCC3CCCCO3)s2)cc1 (stereo unspecified)	1	9	1.8	-3	4702	-14	10
15	Cc1cc(C)n(-c2ccc(Cl)c(C(=O)NCc3ccccc3)n2)n1	6	12	11	-7	5196	12	0
9	CC1(C)SC2C(NC(=O)COc3ccccc3)C(=O)N2C1C(=O)O (stereo unspecified)	10	2	100*	101*	6015&4006	0	-12&-12
8	CCC(=O)c1ccc(N2CCN(C(=O)c3ccccc3F)CC2)c(F)c1	4	13	6.2	-5	4831	-2	-28
11	CC(=O)c1cc(CN2CCC(N3CCC(C(=O)NC(C)C)CC3)CC2)cs1	3	0	0.1	2	2955	-1	4
22	Cc1cc(C)nc(NS(=O)(=O)c2ccc(NS(=O)(=O)c3ccccc3)cc2)n1	16	4	5.2	-2	7972	9	-20
14	Cc1cc(C(=O)CN2C(=O)NC(C)(CC(C)C)C2=O)c(C)n1-c1ccc2c(c1)OCO2 (stereo unspecified)	-5	5	-1.0	5	2719	-6	-19
16	CCCc1nnc(NC(=O)CCC(=O)N2CCN(Cc3ccc(C)cc3C)CC2)s1	7	10	2.3	1	5633	1	-9
12	COc1cc2c(cc1OC)[C@@H](NC(=O)Cc1ccc(F)cc1)[C@H](OCc1ccccc1)C2	-2	6	-0.3	2	3277	x	-8
24	C#CCCOC(=O)N1C2=NC(C(=O)OC)=C(C(=O)OC)C3N(C)c4ccccc4[C@]23CC1CO (stereo partly specified)	2	5	4.9	-2	x	x	x

The listing continues:
cpd	Molecule	Mtb hypoxia inh	Mtb hypoxia inh growth	Sa RN4220 lethal	Sa ugtP lethal	Bead autofluor	BJeLR viability	PrP 5UTR inh
25	Cc1n[nH]c(C)c1S(=O)(=O)N1CCN(c2ccccn2)CC1	x	x	2.0	-3	3740	-1	-18
26	O=S(=O)(NCCN1CCOCC1)c1cc(Cl)ccc1Cl	-5	2	4.6	12	3889	-1	-22
27	COc1ccc(CC(=O)NCC2(c3ccc(OC)c(OC)c3)CCOCC2)cc1	-13	10	9.4	2	4651	-5	-9&-41
28	O=C(N/N=C/c1ccc(OCC(=O)N2CCCCC2)cc1)c1ccccc1	x	x	x	x	5328	1	14
29	O=C(O)/C=C/C(=O)Nc1ccccc1-c1ccccc1NC(=O)/C=C/C(=O)O	9	10	6.7	15	7034	8	-5
30	O=C(NC1CCCCC1)C(c1ccco1)N(C(=O)c1csnn1)c1cccc(Cl)c1 (stereo unspecified)	-20	-14	1.8	-3	3811	-4	1
31	CCc1ccccc1NC(=O)C(Cc1ccccc1)c1nn[nH]n1 (stereo unspecified)	1	0	5.2	25	3773	-6	-9
32	CC(=NNC(=O)c1ccc2nc[nH]c2c1)c1ccc(Br)cc1	6	-4	-0.6	0	3062	x	-13
33	O=C(Cc1ccccc1)Nc1ccc(C(=O)NCC2COc3ccccc3O2)cc1 (stereo unspecified)	4	2	0.5	2	7025	13	-32
34	CC(=O)n1cc([C@H]2C=C(C(=O)N3CCN(Cc4ccccc4)CC3)O[C@@H](OCc3ccc(CO)cc3)C2)c2ccccc21	x	x	x	x	3561	-13	-28
35	CN(C)S(=O)(=O)c1ccc(Cl)c(NC(=O)COc2ccccc2[N+](=O)[O-])c1	x	x	x	x	2099	6	-16
36	CCN(CC)S(=O)(=O)c1ccc(N2CCCC2)c(NS(=O)(=O)c2ccc(F)cc2)c1	7	8	7.7	3	1847	-6	0
37	CC(C)[C@H](NC(=O)c1ccccc1Cl)C(=O)OCC(=O)Nc1ccc(S(=O)(=O)N2CCOCC2)cc1	3	3	2.3	3	2945	x	5
38	Cc1ccc(-n2c(SCC(=O)Nc3cccc(S(=O)(=O)NC4=NCCCCC4)c3)nc3ccccc3c2=O)cc1C	10	6	6.0	-1	2680	-3	3
39	COc1cccc(CNC(=O)CCCSc2ccccc2)c1	-7	1	-1.1	5	3550	0	6
40	CSc1ccc(CN(C)C(=O)c2cc(S(=O)(=O)NCc3ccccc3)ccc2C)cc1	-7	5	-0.6	-1	6116	9	-20
41	O=C(Nc1ccc(N2CCOCC2)cc1)c1ccc(-c2ccccc2[N+](=O)[O-])o1	-5	-3	4.7	11	4112	33	-14
42	Cc1nn(Cc2c(F)c(F)c(F)c(F)c2F)c(C)c1NC(=O)c1cccc(COc2ccccc2Cl)c1	2	-7	1.4	-12	20980*	2	-51
43	O=S(=O)(c1ccc(Cl)cc1)N1CCN(S(=O)(=O)N2CCCCCC2)CC1	6	7	5.8	4	4908	7	-7
44	Cc1ccc(C(=O)Nc2ncc(Cc3ccc(F)cc3)s2)o1	2	15	7.9	-11	5208	-8	-86
45	O=C(N1CCOCC1)N1CCC(c2nc(-c3ccc(S(=O)(=O)N4CCOCC4)cc3)no2)CC1	11	11	6.8	-2	6097	-1	12
46	CC(C)(C)Nc1c(N)c(=O)oc2ccccc12	0	0	3.8	3	17669*	-6	-7
47	CC(C)(CC(=O)O)CC(=O)N1CCN(c2nc3ccc(Cl)cc3s2)CC1	-2	0	5.6	-1	3270	3	-25
48	COc1cccc(C(=O)/C=C/c2ccc(OCC#N)c(OC)c2)c1	13	7	19	3	8869	2	-59
49	O=C(OC1CCOC1=O)c1cc(-c2ccccc2)nc2ccccc12 (stereo unspecified)	7	5	5.9	3	10080	6	-30
50	N#CC1=C(N)C(C#N)(C#N)C(c2ccc[nH]2)C2CCCC=C12 (stereo unspecified)	4	3	1.4	-15	10568	-4	-17
51	COc1ccc(C(=O)NC2CCN(S(=O)(=O)c3ccccc3F)CC2)cc1	6	4	0.5	8	3610	0	-10
52	COc1ccc(NC(=O)CCNS(=O)(=O)c2ccc3c(c2)CC(C)N3C(C)=O)cc1 (stereo unspecified)	3	8	2.4	2	5167	17	-18
53	Cc1cccc(OCCCC(=O)NCC(=O)Nc2cccc(C)c2C)c1	-13	-7	11	6	3215	5	36
54	C#CCOCCOCCOCCNc1nc(N2CCN(C(=O)C([C@@H](C)CC)n3cc(C(N)CC(C)C)nn3)CC2)nc(N2CCN(C(=O)[C@H](CCC(=O)O)n3cc(C(N)[C@H](C)CC)nn3)CC2)n1 (stereo partly specified)	x	x	x	x	3852	-1	19
55	COc1ccc(CN2CCNC(=O)C2CC(=O)NC2CCCC2)c(C)c1C (stereo unspecified)	-5	-3	4.0	7	5873	-7	-22
56	OCC1(Cc2ccccc2)CCCN(Cc2cnn(-c3ccccc3)c2)C1 (stereo unspecified)	4	2	-2.1	3	4921	8	-16
57	CCCCn1c(=NC(=O)c2ccco2)c(C(=O)OCC)cc2c(=O)n3cccc(C)c3nc21	-6	3	5.9	-2	4023	4	10
